FGF22 binding = binders of recombinant human FGF22 by thermal shift. Q9HCT0. SYPRO orange fluorescence; percent of sucrose octasulfate shift, DMSO zero. calls only at 9.99 µM. 340,000 tested, 1.5% active. AID 651658;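 active means melting point raised past a set limit in the mean and every replicate; three in four hits are not shown here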
Target sequence (Q9HCT0 whole entry, looked up): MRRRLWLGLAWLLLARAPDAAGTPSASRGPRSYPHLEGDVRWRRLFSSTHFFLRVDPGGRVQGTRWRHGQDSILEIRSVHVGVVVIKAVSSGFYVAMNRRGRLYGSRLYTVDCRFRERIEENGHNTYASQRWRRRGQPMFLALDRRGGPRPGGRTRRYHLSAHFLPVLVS
T cruzi inh = blocks replication of Trypanosoma cruzi; T. cruzi beta-gal in NIH3T3, luminescence, 90 h; inhibition, % (no concentration beside the values); 300,000 tested, 1.4% active;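 active means mean inhibition across valid replicates above about 55%, limit read from the data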;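 further: signal also drops with host cell toxicity which is not excluded here; 0% = plate median of DMSO wells and 100% = zero luminescence signal; higher percent means less beta-gal luminescence so fewer parasites; stock transfer was 50 nL into about 50 µL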
A1 inh = inhibitors of the anti-apoptotic protein A1, read as caspase activation. 330,000 tested, 0.066% active. MEF A1-2A-BIM cells, Caspase-Glo 3/7 luminescence, 3 h; percent of clofoctol response, vehicle zero. AID 2462. caspase activation, % (test concentration not listed);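 active means over half of replicate activation scores above 10%, or exactly half above 10 with the replicate mean above 10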;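 further: wells of about 30 µL received 50 nL stock; many hits fall short of the cut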
UCH37 DUB inh = human UCH37 deubiquitinating enzyme inhibition | purified proteasome/UCH37, Ub-AMC cleavage fluorescence | 330,000 tested, 0.33% active | inhibition, % (concentration not given with the values) | Q9Y5K5 | AID 588478;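 active means mean of two replicates above 20%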;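 further: 0% = compound-free wells with enzyme and 100% = wells lacking proteasome; stock transfer was 100 nL into about 20 µL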
Target sequence (Q9Y5K5 whole entry, looked up): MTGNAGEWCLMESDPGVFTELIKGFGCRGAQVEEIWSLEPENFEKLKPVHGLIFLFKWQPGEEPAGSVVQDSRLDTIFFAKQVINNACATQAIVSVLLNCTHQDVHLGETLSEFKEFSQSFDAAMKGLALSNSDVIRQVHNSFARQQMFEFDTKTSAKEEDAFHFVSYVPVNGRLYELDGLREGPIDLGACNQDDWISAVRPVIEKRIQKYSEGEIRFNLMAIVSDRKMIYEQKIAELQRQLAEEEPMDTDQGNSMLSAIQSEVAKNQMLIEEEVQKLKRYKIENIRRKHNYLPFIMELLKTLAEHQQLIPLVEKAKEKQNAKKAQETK
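Material: Human UCH37 enzyme supplied as purified proteasome complex | Schedule: 30 min preincubation with enzyme, 25 min cleavage at room temperature | Detection: AMC fluorescence 355/460 nm | Measure: % inhibition of Ub-AMC cleavage fluorescence | Controls: Wells without proteasome as full block, compound-free enzyme plus substrate as uninhibited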
MLL AF4-AF9 inh = blocks AF4 peptide binding to human AF9; 350,000 tested, 0.47% active; P42568; inhibition, % at 10 µM; AlphaScreen, biotin-AF4 peptide binding to FLAG-AF9;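 active means every replicate reaching a set inhibition limit, whatever the replicate mean, cut at about 25% in these data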;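 further: 0% = plate neutral control median and 100% = total signal loss; the record names both 10 and 1 µM as test concentration; the first replicate is given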
Target sequence (P42568 whole entry, looked up): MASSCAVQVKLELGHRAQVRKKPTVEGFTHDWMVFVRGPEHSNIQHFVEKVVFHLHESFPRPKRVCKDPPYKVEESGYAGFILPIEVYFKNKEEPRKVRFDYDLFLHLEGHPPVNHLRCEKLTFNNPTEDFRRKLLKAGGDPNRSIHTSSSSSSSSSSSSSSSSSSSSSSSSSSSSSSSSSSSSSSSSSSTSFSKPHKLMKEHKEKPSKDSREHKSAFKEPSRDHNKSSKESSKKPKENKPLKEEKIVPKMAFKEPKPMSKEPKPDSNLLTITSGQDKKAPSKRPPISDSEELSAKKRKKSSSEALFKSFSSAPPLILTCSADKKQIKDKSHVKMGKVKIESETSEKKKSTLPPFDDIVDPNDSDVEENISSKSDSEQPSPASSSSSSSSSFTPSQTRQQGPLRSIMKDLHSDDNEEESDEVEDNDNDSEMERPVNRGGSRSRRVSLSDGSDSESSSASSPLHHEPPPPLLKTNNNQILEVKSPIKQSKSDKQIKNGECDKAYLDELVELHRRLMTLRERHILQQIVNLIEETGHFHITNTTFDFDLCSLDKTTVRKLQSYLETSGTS
Beta apoptosis = blocks beta cell apoptosis. INS-1E cytokine-induced death, ATP luminescence, 48 h; percent of positive-control rescue, neutral wells zero. protection from apoptosis, % (no concentration beside the values). 300,000 tested, 0.8% active. AID 435005;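 active means all replicates at 75% or more, or half of them and the mean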;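 further: 0% = cytokine-treated negative control wells and 100% = positive control rescue; higher means more ATP so stronger rescue from cytokine killing; wells of about 40 µL received 100 nL stock; the first replicate is given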
E coli growth = inhibitors of Escherichia coli growth; OD600 absorbance (concentration not given with the values); 330,000 tested, 0.21% active; OD600, 23 h; hits give low values;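 active means OD600 absorbance below the run mean of sample wells minus 3.6 SD, in any replicate, cut at about 0.56 in these data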;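 further: stock transfer was 300 nL into about 60 µL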
Ecoli rRNA inh = selective bacterial rRNA inhibition in E. coli; E. coli WT GFP vs humanized-ribosome RFP mutants, fluorescence, 24 h; hits give low values; DMSO median 0, no signal -100; GFP signal change (wild-type ribosome), % (test concentration not listed); 350,000 tested, 1.6% active; AID 720706;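 active means significant combined selectivity score with lowered wild-type GFP, culture density cut under 30%, mutant RFP and density less affected; inactive means any of these conditions unmet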; further: one replicate is shown; some compounds called inactive have numbers as strong as hits
Ecoli rRNA inh OD600 = second read-out of Ecoli rRNA inh, no call of its own (marks repeat the call); OD600 change, %; measured here: OD600 growth;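 optical density of the mix in the first replicate; 0 = DMSO median and -100 = no signal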
Ecoli rRNA inh RFP = further read-out of Ecoli rRNA inh, marked with its call; RFP signal change, %; measured here: RFP humanized mutant strains;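 first replicate; 0 = DMSO median and -100 = no signal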
* = called active by the depositor; i = inactive; x = no result given. These rows are one share of the data, so the mix of outcomes need not match the whole.

SMILES	FGF22 binding	T cruzi inh	A1 inh	UCH37 DUB inh	MLL AF4-AF9 inh	Beta apoptosis	E coli growth	Ecoli rRNA inh	Ecoli rRNA inh OD600	Ecoli rRNA inh RFP
COc1ccc(-n2c(C)nc3c(cnn3-c3ccc(C)c(C)c3)c2=O)cc1	i	13.9	-0.2	3.4	-2.3	5.6	0.74	4.5	16.2	1.9
CON1C(=O)CN(C(C)=O)C1c1ccc(Cl)cc1Cl (centres undefined)	i	x	x	6.4	1.7	x	0.663	2.5	4.1	-3.2
O=C(Nc1ccc2c(c1)CCC2)c1ccc(F)cc1	x	5.5	-6.7	2.3	x	8.0	x	x	x	x
c1ccc2[nH]c(SCCN3CCOCC3)nc2c1	x	-13.2	-0.6	2.8	x	3.4	0.685	x	x	x
O=C(COc1c(F)c(F)cc(F)c1F)NNC(=O)CC1CCS(=O)(=O)C1 (centres undefined)	i	x	0.8	-1.2	-1.8	-1.8	0.668	6.2	10.6	-0.9
O=C(NCc1ccccc1F)C1CCCN(c2cnccn2)C1 (centres undefined)	i	-18.1	0.4	-9.8	-3.7	x	0.683	10.8	16.9	-0.1
O=C(NCC1CCCO1)c1ccc([N+](=O)[O-])o1 (centres undefined)	i	41.6	0.1	5.4	-0.2	-28.5	0.621	10.0	5.0	1.2
COc1cc(/C=C2/SC(=O)N(Cc3ccccc3)C2=O)ccc1OCc1ccncc1	x	36.0	0.1	-4.7	x	6.6	x	x	x	x
Cn1c(=O)c2cc3ccc(Cl)cc3nc2n(C)c1=O	i	3.2	1.1	-16.3	-1.0	-4.8	0.657	4.7	10.8	1.0
Cn1cnc2c1c(=O)n(Cc1cccc(F)c1)c(=O)n2C	i	-6.1	0.3	3.1	-1.7	-2.4	0.651	4.2	6.0	0.0
Nc1ncnc2[nH]c(=S)[nH]c12	i	x	x	-0.8	4.8	x	0.671	13.1	2.5	1.3
COc1cc(/C=C/C(=O)O)cc(S(=O)(=O)Nc2ccc3[nH]c(=O)[nH]c3c2)c1OC	i	-12.5	0.7	-0.8	0.0	-2.2	0.653	5.3	13.4	-3.2
COc1ccc2cnn(-c3ccc(OC(F)(F)F)cc3)c(=O)c2c1OC	i	-14.3	1.8	4.7	-0.5	0.0	0.642	3.6	10.9	-0.3
CCOC(=O)C1CCN(CC(=O)Nc2ccc(S(=O)(=O)N3CCC(C)CC3)cc2)CC1	i	10.1	0.5	0.8	0.3	1.1	0.652	-3.8	-2.1	3.0
COc1ccc(/C=N/S(=O)(=O)c2ccc(C)cc2)cc1	i	2.4	0.4	x	4.6	0.0	x	6.6	1.5	-3.1
c1ccc2[nH]c(CSc3nc4ccccc4s3)nc2c1	x	-4.8	-3.1	-2.5	x	3.0	0.631	x	x	x
O=C(C1=C(O)C(=O)N(Cc2ccccc2)C1c1cccnc1)c1ccco1 (centres undefined)	x	-6.7	0.4	13.5	x	-2.2	0.665	x	x	x
O=c1c2c(nc3nc[nH]n13)CCC2	x	-13.0	0.1	0.7	x	-7.3	0.664	x	x	x
CCCOc1cccc(C(=O)N(Cc2ccc(OC)c(OC)c2)C2CCS(=O)(=O)C2)c1 (centres undefined)	x	-0.3	-0.4	-3.3	x	1.9	0.722	x	x	x
CC(CC(=O)Nc1nnc(CC(C)(C)C)s1)c1ccccc1 (centres undefined)	i	1.5	-0.1	2.2	-1.0	0.9	0.684	11.8	-0.7	2.9
COc1c(F)c(F)c(C(=O)Nc2ccccc2N2CCN(C(=O)C(C)C)CC2)c(F)c1F	x	7.1	-0.1	1.0	x	-1.7	0.706	x	x	x
CN(Cc1ccccc1)C(=O)CNC(=O)C12CC3CC(CC(C3)C1)C2	i	x	1.0	3.1	1.2	-0.3	0.648	-5.7	-10.4	-0.8
C#CCNC(=O)C1=C[C@@H](c2ccc3c(c2)OCO3)C[C@@H](OCc2ccc(CO)cc2)O1	x	5.0	-0.4	2.0	x	-3.2	x	x	x	x
COc1cccc(C(=O)Nc2ncc3c(n2)CC(C)CC3=O)c1 (centres undefined)	x	-13.0	-1.1	4.9	x	-2.1	0.694	x	x	x
CCC1(CC)C(=O)NC(=O)NC1=NCCc1c[nH]c2ccccc12	x	-2.9	0.7	-0.9	x	-0.5	0.723	x	x	x
Further entries follow:
SMILES	FGF22 binding	T cruzi inh	A1 inh	UCH37 DUB inh	MLL AF4-AF9 inh	Beta apoptosis	E coli growth	Ecoli rRNA inh	Ecoli rRNA inh OD600	Ecoli rRNA inh RFP
Cc1ccc(N=C2S/C(=C\c3cn(CC(=O)O)c4ccccc34)C(=O)N2C)cc1	x	-31.5	-0.3	10.3	x	1.5	0.658	x	x	x
CC(=O)NC12CC3CC(C1)CC(C(=O)Nc1nc4c(C)cccc4s1)(C3)C2	i	-1.2	1.0	-0.1	2.4	2.1	0.719	-16.9	-24.0	-4.4
COc1ccccc1-n1cnnc1SCC(=O)N1CCN(C(=O)c2ccco2)CC1	i	24.0	0.7	4.0	0.6	-1.4	0.642	8.8	6.8	3.4
O=c1[nH]cnc2cc(-c3ccccc3)sc12	x	6.9	-2.9	3.3	x	-2.9	0.612	x	x	x
Cc1cccc(NC(=O)CCC2CCN(C(=O)c3ccc(C)s3)CC2)c1	i	-6.4	0.7	5.7	-4.6	3.2	0.668	-0.5	0.9	2.1
O=C(Cc1ccc(Cl)cc1)N1CCN(c2ccccc2)CC1	i	-3.9	0.2	1.1	-1.5	-1.6	0.604	-1.0	-5.9	3.2
Cc1cccn2c(=O)c3cc(C(=O)NCC4CCCO4)c(=N)n(CC4CCCO4)c3nc12 (centres undefined)	i	-3.0	0.1	i	-3.1	0.5	0.712	4.1	8.3	-2.9
Cc1ccc(S(=O)(=O)Nc2nc(N)n(-c3ccccc3)n2)cc1	i	-2.3	0.3	4.0	-1.1	3.3	0.676	4.8	7.2	-2.3
COc1ccc(N2CC(C(=O)NCCN3C(=O)S/C(=C\c4cccnc4)C3=O)CC2=O)c(OC)c1 (centres undefined)	i	-3.2	-0.4	x	3.0	-4.2	x	8.5	7.0	2.4
O=C(CSc1nnnn1-c1ccccc1)NC1CCCc2ccccc21 (centres undefined)	i	-5.2	-0.7	3.9	0.8	4.8	0.683	-27.9	-32.0	-4.7
C=CC[C@H](CC(=O)N(CCO)Cc1ccccc1)C(=O)N[C@H](COC(=O)[C@@H](CC=C)Cc1ccc(F)cc1)C(C)(C)C	i	x	0.1	0.4	0.4	0.1	x	6.2	-11.4	14.2
CCC(=O)NC(C)C(c1cccs1)N1CCN(c2ccccc2)CC1 (centres undefined)	i	-7.2	1.2	3.3	4.3	x	0.72	1.7	1.5	2.5
COc1ccc(/C(O)=C2/C(=O)C(=O)N(CCCC(=O)O)C2c2ccc(OC)cc2)cc1 (centres undefined)	x	1.4	-0.6	11.8	x	0.1	0.772	x	x	x
Nc1nc(Nc2ccc(Cl)cc2)nc2ccccc12	x	35.6	0.4	-24.9	x	28.2	0.352*	x	x	x
COC(=O)c1ccc(CN2CCCC(CO)(Cc3ccccc3F)C2)cc1 (centres undefined)	i	12.6	1.0	2.6	1.7	3.3	0.71	-20.0*	-9.3*	3.0*
CCN(CC(=O)N1CCN(Cc2ccccc2)CC1)S(=O)(=O)c1ccc(F)cc1	i	-3.6	0.4	-0.7	-3.1	3.7	0.705	-4.9	2.6	1.2
Cc1cc(NC(=O)CSc2nnc(C3COc4ccccc4O3)o2)no1 (centres undefined)	x	-43.1	-1.4	5.7	x	-3.8	0.763	x	x	x
CN1C(=O)/C(=C/c2ccc(C(=O)Nc3ccc(O)cc3C(=O)O)cc2)SC1=S	i	-6.4	-1.4	9.4	2.2	1.0	0.718	-9.7	7.3	-3.0
Cn1nc(C(=O)NCc2ccc(F)cc2)c2c1-c1ccccc1S(=O)(=O)C2	i	-0.3	-0.7	1.8	2.0	-3.8	0.693	-30.4	-41.2	-7.7
CC1CCCN(C(=O)c2ccncc2)C1 (centres undefined)	x	-12.1	2.0	1.3	x	-0.3	0.723	x	x	x
COc1ccc(S(=O)(=O)N2CCCCC2)cc1NC(=O)Cc1ccsc1	i	x	-0.6	5.1	3.7	-3.4	0.722	5.5	20.5	-1.7
Cc1cc(-c2csc(Nc3ccccn3)n2)ccc1F	i	33.6	-1.2	3.7	-22.3	4.9	0.634	-15.3	-6.0	-1.1
Cc1nonc1C(=O)N/N=C/c1ccc(O)cc1O	i	-10.0	-9.2	x	0.4	72.8	x	-22.4*	-5.8*	0.8*
C=C(C)CN1C(=O)C2(OCCO2)c2ccccc21	i	3.5	1.3	2.7	-3.0	-9.3	0.669	9.6	11.9	2.4
CCCCNC(=S)N1CCn2cccc2C1c1ccccc1 (centres undefined)	i	-7.9	-0.6	5.6	3.6	-5.7	0.685	5.9	6.5	-0.5
Continuation.
SMILES	FGF22 binding	T cruzi inh	A1 inh	UCH37 DUB inh	MLL AF4-AF9 inh	Beta apoptosis	E coli growth	Ecoli rRNA inh	Ecoli rRNA inh OD600	Ecoli rRNA inh RFP
CN=CC1=C(O)c2ccccc2C1=O	x	-7.1	0.4	6.6	x	-1.5	0.681	x	x	x
CCC1Oc2ccc(C)cc2N(CC(=O)NCCCN2CCOCC2)C1=O (centres undefined)	i	-0.7	1.2	4.7	10.5	-5.9	0.711	11.2	5.6	-1.1
O=C(NCc1cccnc1)Nc1cccc(Cl)c1	i	25.4	-0.4	2.8	-1.5	-3.1	0.676	-11.7	-8.4	-2.2
C=CCOc1cccc(CNc2cccc(C(=O)O)c2)c1	i	-7.1	-1.4	-31.7	-3.1	-2.8	0.667	1.7	-4.8	-5.2
CC(C)=C1C2CCC1C1C(=O)N(c3nc(-c4ccccc4)c(C)s3)C(=O)C21 (centres undefined)	x	-8.6	-0.7	5.2	x	-5.5	0.67	x	x	x
COC(=O)c1c(NC(=O)CSc2nnc(-c3ccco3)n2C)sc(C)c1C	x	-3.0	-0.5	4.6	x	-3.4	0.708	x	x	x
COc1ccc(C)cc1NC(=O)CN1C(=O)C(=O)N(C2CCCC2)C1=O	i	x	x	1.0	-2.0	x	0.674	12.2	3.0	3.9
NC(=O)C1CCN(C(=O)C2CC(=O)N(c3ccc4c(c3)OCCO4)C2)CC1 (centres undefined)	i	x	0.4	4.3	1.5	-3.7	0.67	3.5	1.8	-2.0
COc1ccc(-c2nn(-c3ccccc3C)cc2CNC(C)Cn2cncn2)cc1F (centres undefined)	x	10.9	-0.7	-1.6	0.1	-2.1	0.719	x	x	x
NC(=O)NC(=O)CN1C(=O)NC2(CCOc3ccccc32)C1=O (centres undefined)	i	-20.0	-0.4	1.2	0.2	-2.2	0.715	10.9	20.4	-1.9
CC(C)CCNC(=S)Nc1ccc(F)cc1	x	-3.1	1.0	2.3	x	-4.0	0.657	5.4	9.1	7.7
COc1ccc2nc(SCC(=O)NCCc3ccccc3)[nH]c2c1	i	-20.7	0.7	1.5	-2.0	-1.0	0.649	-24.4*	-16.0*	3.3*
CC(C)(C)c1ccc(C(=O)NCC(=O)N/N=C/c2cccnc2)cc1	i	11.9	-0.3	x	12.5	2.1	x	2.0	-0.5	0.9
CC(C)CNC(=O)C1CCCN1S(=O)(=O)c1ccc(Cl)cc1 (centres undefined)	x	-11.7	0.9	-0.7	x	x	0.64	x	x	x
Cc1ccc(N2C(=O)c3ccc(C(=O)N4CCN(c5cccc(C)c5C)CC4)cc3C2=O)cc1	x	-6.5	-0.1	4.7	x	4.2	0.67	x	x	x
